VDR inhibitor = blocks the human vitamin D receptor. P11473. AID 504847. 0.93% of 400,000 active. Potency, µM, for the others: max response, negative = inhibition, most hits filed as inhibitors. VDR-SRC2-3 peptide fluorescence polarization, 2 h; active = well fitted inhibition curve with a large enough effect; inconclusive = small, poorly fitted or top-dose-only effect, or another doubt; inactive = no such curve, though single readings can be large or run the other way; note: series mostly up to about 120 µM
Target sequence (P11473 whole entry, looked up): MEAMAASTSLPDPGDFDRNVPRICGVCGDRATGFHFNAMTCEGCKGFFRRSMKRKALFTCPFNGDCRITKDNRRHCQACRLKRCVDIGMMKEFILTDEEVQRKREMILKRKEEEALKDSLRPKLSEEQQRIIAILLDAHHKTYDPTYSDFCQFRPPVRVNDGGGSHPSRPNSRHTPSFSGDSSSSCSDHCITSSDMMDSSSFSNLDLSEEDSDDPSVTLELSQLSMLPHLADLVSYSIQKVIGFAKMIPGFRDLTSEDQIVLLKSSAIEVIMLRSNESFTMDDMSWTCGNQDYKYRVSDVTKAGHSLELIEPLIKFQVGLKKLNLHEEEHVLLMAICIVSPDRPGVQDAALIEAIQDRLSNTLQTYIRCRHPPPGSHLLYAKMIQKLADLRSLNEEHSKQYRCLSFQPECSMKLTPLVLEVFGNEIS
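FP read-out; VDR + SRC2-3 coactivator peptide; 23 nl compound by pintool; 2 h RT incubation; reagents held at 4 deg C, protected from light.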
* = called active by the depositor; ? = inconclusive; [ ] = remark or other dose. % is set by controls: 0 for no effect and ±100 for the full control effect; potency is the fitted concentration of half-maximal effect. The list is partial; the hit share may differ from the screen's.

#	VDR inhibitor	structure
1	2%	CCN1CCN(Cc2c(O)ccc3c2O/C(=C\c2ccc(C)cc2)C3=O)CC1
2	7%	C/C(=N\S(=O)(=O)c1ccc(C)cc1)N1CCN(S(=O)(=O)c2ccccc2)C1C(C)C (centres undefined)
3	-3%	Cc1ccc(Cn2c(=O)n(-c3ccc(C)cc3)c(=O)c3c2c2cc(C)ccc2n3C)cc1
4	9%	CCN(CCO)C(=S)Nc1cc(C(=O)OC)ccc1C(=O)OC
5	7%	O=[N+]([O-])c1ccc(-c2cn3nc(-c4ccccc4)c(-c4ccccc4)nc3n2)cc1
6	-9%	COc1ccccc1Cn1c(CNS(=O)(=O)c2ccc3c(c2)CCCC3)nc2cccnc21
7	1%	COc1ccc(-n2c(=O)c3c(c4cc(OC)ccc4n3C)n(Cc3cccc(C)c3)c2=O)cc1
8	-13%	COc1ccc(Nc2cc(C(=O)NC3CCC(C)CC3)c3ccccc3n2)cc1OC (centres undefined)
9	?	Cc1cc(C)cc(NC(=O)C(c2ccccc2)N2CCN(CC(=O)NC3CC3)CC2)c1 (centres undefined)
10	0%	C=CCN(C(=O)c1csnn1)C(C(=O)NCc1ccccc1)c1ccccc1F (centres undefined)
11	-8%	C=CCn1c(SCC(=O)/C(C#N)=C(\C)N)nnc1C1CCCCC1
12	-11%	C=CCn1c(SCCOC)nc2c1c(=O)[nH]c(=O)n2C
13	17%	CCOc1ccc(/C=N/NC(=O)C2CC2)cc1OC
14	18%	Brc1ccc(CN2CCSCC2)cc1
15	57%[activator]	COCc1cc(=O)[nH]c(N2CCN(C(=O)c3ccco3)CC2)n1
16	-11%	Cc1nn(Cc2ccccc2Cl)c2sc(C(=O)Nc3nccs3)cc12
17	-2%	COc1ccc(CCNc2oc(COc3ccccc3Cl)nc2C#N)cc1OC
18	-7%	COc1ccc(OC)c(CNC(=O)c2cc3cc4ccc(OC)cc4nc3o2)c1
19	6%	O=C(CNc1cccc([N+](=O)[O-])c1)N1CCN(S(=O)(=O)c2ccc(Cl)cc2)CC1
20	0%	CCCc1ccc(OCCNC(=O)C2CCCCC2)cc1
21	13%	CCc1ccc(NC(=O)c2cc(-c3ccco3)on2)cc1
22	-13%	Cc1ccc(OCC(O)Cn2nc(C)cc2C)cc1 (centres undefined)
23	-9%	CC(C)Cn1c2c(c(O)c(C(=O)Nc3ccc(F)cc3)c1=O)CCCC2
24	1.8µM*	C=CC(=O)c1ccc2ccccc2c1
25	-12%	O=C(c1cc(-c2ccccc2)nn1-c1ccccc1)N1CCN(S(=O)(=O)c2c(F)cccc2F)CC1
26	-4%	CCC1=[N+](CC(=O)c2ccc(C)cc2)CCn2c(C)ccc21
27	-9%	COC(=O)CSc1nnc(CNC(=O)c2ccc(OC)cc2OC)n1C
28	-2%	Cc1ccc(CNc2ncnc3c2cnn3-c2ccccc2)cc1
29	-12%	O=C(NCCC(=O)N(CCc1ccccc1)Cc1ccccc1)c1ccc(Br)cc1
30	-7%	CCN(C(=O)CCN1C(=O)/C(=C/c2ccccc2)SC1=S)C1CCS(=O)(=O)C1 (centres undefined)

Part of the list above, reformatted.
13	CCOc1ccc(/C=N/NC(=O)C2CC2)cc1OC
  VDR inhibitor = 17%
14	Brc1ccc(CN2CCSCC2)cc1
  VDR inhibitor = 18%
15	COCc1cc(=O)[nH]c(N2CCN(C(=O)c3ccco3)CC2)n1
  VDR inhibitor = 57%[activator]

(list continues)
#	VDR inhibitor	structure
31	14%	CCOc1ccc(NC(=O)Cn2cc(C(=O)c3ccc(CC)cc3)c(=O)c3ccc(C)nc32)cc1
32	7%	CCCCC1=CC2=CC(=O)C(C)(OC(=O)CC)C(=O)C2=CN1CC(C)C (centres undefined)
33	-3%	CN(C)C(CNC(=O)C1CCN(S(=O)(=O)c2cccc(Cl)c2Cl)CC1)c1ccccc1 (centres undefined)
34	14%	CCOc1cc(NC(=O)c2ccccn2)c(OCC)cc1NC(=O)c1ccccc1
35	11%	O=C(NCC(=O)N(CC1CCCO1)C(C(=O)NC1CCCC1)c1cccnc1)c1ccco1 (centres undefined)
36	-21%	Cc1ccc2c(CN3CCOCC3)cc(=O)oc2c1
37	5%	Cc1sc2nc(C3CC3)nc(NCCNS(=O)(=O)c3ccccc3)c2c1C
38	3%	O=C(c1cccc2ccccc12)N1CCN=C1SCc1ccc([N+](=O)[O-])cc1
39	1%	CCCN(CCC)C(=S)NC1CC2C=CC1C2 (centres undefined)
40	-2%	CC(NC(=O)COC(=O)c1ccc(N2CCCC2=O)cc1)c1ccc(F)cc1 (centres undefined)

The last 3 records of the part before lead into the next:
#	VDR inhibitor	structure
38	3%	O=C(c1cccc2ccccc12)N1CCN=C1SCc1ccc([N+](=O)[O-])cc1
39	1%	CCCN(CCC)C(=S)NC1CC2C=CC1C2 (centres undefined)
40	-2%	CC(NC(=O)COC(=O)c1ccc(N2CCCC2=O)cc1)c1ccc(F)cc1 (centres undefined)
41	4%	CCC(CCc1ccccn1)C(=O)c1ccccc1 (centres undefined)
42	25%	CCC(=O)NC(=S)Nc1cccc(Cl)c1N1CCCCC1
43	-15%	Cc1ccc(-n2ccnc2SCC(=O)O)cc1C
44	-6%	COc1ccc2oc(=O)c(C(=O)N3CCN(c4ccccc4C)CC3)cc2c1
45	-5%	CCOC(=O)C1(CC2CCCCO2)CCN(Cc2nc(C(C)C)cs2)CC1 (centres undefined)
46	9%	COc1ccc(C2=NS(=O)(=O)N(C)C(C(=O)Nc3ccc4c(c3)OCO4)=C2)cc1
47	-9%	N#C/C(=C\c1ccc[nH]1)C(=O)Nc1ccccc1F
48	5%	NS(=O)(=O)c1ccc(NC2(C(=O)O)CCCC2)cc1
49	-7%	COc1ccccc1NC(=O)CN1CCC(c2nc3ccc(C)cc3[nH]2)CC1
50	-10%	CCOc1ccc(S(=O)(=O)Nc2cccc(C(=O)N(C)CC(=O)Nc3ccc(OC)cc3)c2)cc1
51	?	COC(=O)c1ccc(NC(=S)N2CCN(C)CC2)cc1
52	-10%	CCN(CC)P(=O)(Nc1ccc(C)cc1Br)c1ccc(N(C)C)cc1NC(=O)c1ccco1 (centres undefined)
53	26%	O=C(COC(=O)c1cc[n+]([O-])cc1)Nc1ccc(Cl)c(C(F)(F)F)c1
54	-8%	CC1CCN(CCc2nc3cc(NS(=O)(=O)c4ccccc4)ccc3n2C)CC1
55	-5%	CC(=O)Nc1ccn(C2OC(C(COC(C)=O)NC(=O)C3CCCN3C(=O)OC(C)(C)C)C(OC(C)=O)C2OC(C)=O)c(=O)n1 (centres undefined)
56	-19%	Cc1ccc(-n2cc(C(=O)c3ccc(N4CCN(C)CC4)cc3)nn2)cc1Cl
57	0%	CCN(CC)c1ccc(C(=O)OCC(=O)N2CCCC2)cc1
58	10%	COC(=O)/C(C#N)=C/c1c(N2CCN(c3ccc(OC)cc3)CC2)nc2c(C)cccn2c1=O
59	0%	C=CCNc1cnn(CC(C)=O)c(=O)c1Br
60	?	Oc1cc(-c2ccccc2)c2ccccc2c1
61	-8%	Cc1[nH]c2ccccc2c1C1(O)C(=O)N(Cc2ccc3c(c2)OCO3)c2ccccc21 (centres undefined)
62	-8%	CC(=O)CSc1nnc(Cc2ccc([N+](=O)[O-])cc2)o1
63	8%	COc1cccc(NC(=O)CN(C)S(=O)(=O)c2ccc3[nH]c(=O)oc3c2)c1
64	9%	COc1ccc(NC(=O)CCNS(=O)(=O)c2ccccc2F)cc1S(N)(=O)=O
65	-6%	O=C(c1ccc2c(c1)N(Cc1ccccc1)C(=O)c1ccccc1S2(=O)=O)N1CCOCC1
66	17%	Cn1nnnc1SCc1nnc(-c2ccccc2Br)o1
67	-5%	Cc1cc(C(=O)N(CCC#N)Cc2cccs2)no1
68	-4%	CC(=O)c1cccc(NC(=O)CSc2n[nH]c(-c3ccncc3)n2)c1
69	8%	CC(Oc1ccc(Cl)cc1)C(=O)Nc1ccccc1N1CCOCC1 (centres undefined)
70	-24%	COc1ccccc1NC(=O)/C(=C\c1cccnc1)NC(=O)c1ccccc1
71	-2%	Cc1ccc(C)c(N2CCN(C(=O)Cc3ccc(-n4c(=O)[nH]c5ccsc5c4=O)cc3)CC2)c1
72	-7%	Cc1cnc(CNc2ncncc2-c2ccc3c(c2)OCO3)cn1
73	-4%	COc1cc(NC(=O)c2cccc(Cl)c2)c(OC)cc1NC(=O)CN1CCOCC1
74	11%	CCOc1ccc(NC(=O)c2cccc(-n3cnnn3)c2)cc1
75	-5%	CCCCC(=O)Nc1cccc(NC(=S)NC(=O)Cc2ccccc2)c1
76	-9%	CNC(=O)NC(=O)C(NC1CCCc2ccccc21)c1ccccc1 (centres undefined)
77	6%	O=[N+]([O-])c1ccc(-c2nc(-c3ccncc3)no2)cc1
78	1%	O=C(c1cc(F)c(F)cc1Cl)N1CCN(c2ncccn2)CC1
79	24%	COc1cc(/C=N/NC(=O)c2ccc3nc[nH]c3c2)ccc1O
80	0%	COc1ccc(Oc2coc3cc(OC(=O)/C=C/c4ccc(F)cc4)ccc3c2=O)cc1

Shown as a hit in VDR inhibitor, among the entries above:
#	VDR inhibitor	structure
24	1.8µM*	C=CC(=O)c1ccc2ccccc2c1

Fetched one by one from above, 2 records:
#	VDR inhibitor	structure
59	0%	C=CCNc1cnn(CC(C)=O)c(=O)c1Br
72	-7%	Cc1cnc(CNc2ncncc2-c2ccc3c(c2)OCO3)cn1

(list continues)
#	VDR inhibitor	structure
81	0%	COc1ccc(-c2noc(CCC(=O)NC3CCCC3)n2)cc1
82	2%	CCN(CC)S(=O)(=O)c1cccc(-c2nnc(SCC(=O)NC3CCCC3)n2N)c1
83	12%	CC(=O)c1ccc(NC(=O)CSc2n[nH]c(-c3cccnc3)n2)cc1
84	15%	OCC[C@H]1C[C@H](O)[C@@H](O)[C@]2(Cc3ccccc3O2)O1
85	-19%	Cc1ccc2nc(NC(=O)c3ccc(Br)o3)sc2c1
86	-1%	Cc1cc(Nc2cccc([N+](=O)[O-])c2)n2c(nc3ccccc32)c1C#N
87	2%	O=C(NN=C(Cc1ccccc1)Cc1ccccc1)c1ccccc1O
88	-13%	CCCCc1ncc(CN2CCC(n3nccc3NC(=O)c3ccccc3Cl)CC2)[nH]1
89	3%	CC(=O)N1CCN(S(=O)(=O)c2cccc(C(=O)Nc3nc4c(s3)CCCC4)c2)CC1
90	-28%	O=C(C[n+]1ccccc1)c1ccc(Cl)cc1
91	-6%	O=C(NC1CCN(C(=S)Nc2ccc(Cl)cc2)CC1)C1CCCCC1
92	10%	COc1ccc(-n2nnnc2C2CCN(S(=O)(=O)c3ccc(C(C)(C)C)cc3)CC2)cc1
93	?	N#CCCCSC1=C(C#N)C(c2ccccc2Cl)CC(=O)N1 (centres undefined)
94	-8%	Cc1onc(-c2ccccc2Cl)c1C(=O)Nc1nnc(-c2ccc(F)cc2)s1
95	-8%	CCc1ccc(-n2nc3cc(C)c(NC(=O)c4cccc5ccccc45)cc3n2)cc1
96	7%	Cc1ccccc1NC(=S)N/N=C1\CC(C)(C)Oc2ccc(O)cc21
97	9%	CCOc1ccccc1CNC(=O)c1ccc(CS(=O)Cc2cccc(Cl)c2)o1 (centres undefined)
98	24%	O=C(COC(=O)c1cc(-c2cccc(Br)c2)nc2ccccc12)NCC1CCCO1 (centres undefined)
99	10%	CCOC(=O)[C@H]1[C@H]2COc3ccc(OC)cc3[C@@H]2N2C(=O)CN(CC3CCCO3)C(=O)[C@@]12C (some centres undefined)
100	2%	CC(C)(C)c1cc(NC(=O)CSc2nnc(NCc3ccccc3)s2)n(-c2ccccc2)n1

Bioassay records: PubChem, National Center for Advancing Translational Sciences (NCATS)
